# T cruzi repl – T. cruzi replication inhibition; inhibition, % (no concentration beside the values); 1.4% of 300,000 active; T. cruzi beta-gal in NIH3T3, luminescence, 90 h; AID 1885;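 active = mean inhibition across valid replicates above about 55%, limit read from the data; inconclusive = mean below that limit but half or more replicates reach it; inactive = mean below it, under half of replicates reach it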;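 also: signal also drops with host cell toxicity which is not excluded here; 0% = plate median of DMSO wells and 100% = zero luminescence signal; higher percent means less beta-gal luminescence so fewer parasites; stock transfer was 50 nL into about 50 µL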
# RanGTP-Imp inh – inhibitors of RanGTP-importin-beta interaction, primary screen, biochemical, FRET, CFP-Ran, YFP-importin-beta, homogeneous; cell-free CFP-Ran/YFP-importin-beta FRET ratio; inhibition, % (test concentration not listed); 1.1% of 300,000 active; AID 2216;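 active = most replicates above 15%; inconclusive = exactly half above 15%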;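 also: 0% = DMSO wells and 100% = Ran loaded with GDP instead of GTP; wells of about 40 µL received 100 nL stock; the first replicate is given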
# Beta apoptosis – blocks beta cell apoptosis; INS-1E cytokine-induced death, ATP luminescence, 48 h; percent of positive-control rescue, neutral wells zero; 0.8% of 300,000 active; protection from apoptosis, % (test concentration not listed);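 active = all replicates at 75% or more, or half of them and the mean; inconclusive = half reach 75% but not the mean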;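 also: 0% = cytokine-treated negative control wells and 100% = positive control rescue; higher means more ATP so stronger rescue from cytokine killing; wells of about 40 µL received 100 nL stock; the first replicate is given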
# AF4-AF9 inh – inhibitors of human MLL-AF4/AF9 interaction; 0.47% of 350,000 active; P42568; AlphaScreen, biotin-AF4 peptide binding to FLAG-AF9; inhibition, % at 10 µM;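 active = every replicate reaching a set inhibition limit, whatever the replicate mean, cut at about 25% in these data; inconclusive = mean inhibition reaches that limit but some replicates miss it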;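 also: 0% = plate neutral control median and 100% = total signal loss; the record names both 10 and 1 µM as test concentration; the first replicate is given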
# Vif A3G – HIV-1 Vif–A3G interaction blockers – biochemical, TR-FRET, GST-Vif 1-94, biotin-A3G peptide, dose response retest, primary screen (AID 1117319); TR-FRET GST-Vif / biotin-A3G peptide binding; higher % means a stronger effect; test concentration not given here; strong numbers were not always called active; 0.57% of 260,000 active; inhibition, %, or IC50 in µM where a hit was titrated;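 active = above the screen mean plus three standard deviations and confirmed in dose response; inconclusive = results disagree or hit not tested in dose response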;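 also: Vif residues 1-94 fused to GST binding biotinylated APOBEC3G peptide 110-148; 0% = full assay without inhibitor and 100% = GST in place of GST-Vif; retest series ran down from 100 µM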
# A1 inh – inhibitors of the anti-apoptotic protein A1, read as caspase activation | MEF A1-2A-BIM cells, Caspase-Glo 3/7 luminescence, 3 h; percent of clofoctol response, vehicle zero | 0.066% of 330,000 active | caspase activation, % (concentration not given with the values);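 active = over half of replicate activation scores above 10%, or exactly half above 10 with the replicate mean above 10; inconclusive = replicate mean below 10 yet half the replicates above 10; inactive = over half of replicates below 10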;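 also: wells of about 30 µL received 50 nL stock; many hits fall short of the cut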
# LANA-H2A inh – blocks KSHV LANA binding to histone H2A/H2B; AID 2629; inhibition, % (test concentration not listed); 0.6% of 320,000 active; Q9QR71; cell-free LANA-H2A/H2B peptide, fluorescence polarization; in the data active = inhibition mostly above about 10%, no sharp cut-off; inactive = mostly below about 6.7%;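 also: stock transfer was 7.5 nL into about 10 µL; 0% = median of vehicle wells and 100% = median of positive control wells; one replicate is shown; the record names a cut of 25% in any replicate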
# Target sequence (Q9QR71 whole entry, looked up): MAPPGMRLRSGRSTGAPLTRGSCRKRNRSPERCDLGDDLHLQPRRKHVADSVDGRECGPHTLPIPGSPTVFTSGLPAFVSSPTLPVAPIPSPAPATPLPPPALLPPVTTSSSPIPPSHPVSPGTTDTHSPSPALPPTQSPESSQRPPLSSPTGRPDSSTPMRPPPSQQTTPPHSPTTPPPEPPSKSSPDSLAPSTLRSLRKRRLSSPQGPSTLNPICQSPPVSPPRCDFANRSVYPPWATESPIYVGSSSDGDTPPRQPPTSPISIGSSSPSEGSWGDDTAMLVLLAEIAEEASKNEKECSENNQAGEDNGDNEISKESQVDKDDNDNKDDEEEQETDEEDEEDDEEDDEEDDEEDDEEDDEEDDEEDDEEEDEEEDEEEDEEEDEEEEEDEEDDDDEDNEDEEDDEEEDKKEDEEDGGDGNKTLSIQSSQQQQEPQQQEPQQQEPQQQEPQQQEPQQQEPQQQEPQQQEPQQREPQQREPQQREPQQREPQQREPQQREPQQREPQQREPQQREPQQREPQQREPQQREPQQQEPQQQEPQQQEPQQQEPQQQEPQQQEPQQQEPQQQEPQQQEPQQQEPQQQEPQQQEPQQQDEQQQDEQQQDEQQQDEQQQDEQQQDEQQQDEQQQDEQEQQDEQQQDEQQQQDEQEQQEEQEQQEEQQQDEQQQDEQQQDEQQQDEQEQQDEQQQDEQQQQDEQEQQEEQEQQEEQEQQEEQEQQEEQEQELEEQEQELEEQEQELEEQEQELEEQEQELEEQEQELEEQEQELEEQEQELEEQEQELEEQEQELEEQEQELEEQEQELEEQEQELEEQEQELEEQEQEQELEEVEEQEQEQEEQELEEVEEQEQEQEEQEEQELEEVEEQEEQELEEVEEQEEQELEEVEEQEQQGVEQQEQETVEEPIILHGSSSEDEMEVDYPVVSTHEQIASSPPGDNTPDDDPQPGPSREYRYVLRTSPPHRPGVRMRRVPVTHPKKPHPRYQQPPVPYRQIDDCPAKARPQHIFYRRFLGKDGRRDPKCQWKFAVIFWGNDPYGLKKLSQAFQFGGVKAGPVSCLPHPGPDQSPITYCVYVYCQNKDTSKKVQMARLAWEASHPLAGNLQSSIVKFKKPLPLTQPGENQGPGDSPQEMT
# Calb FLC – affects C. albicans growth with fluconazole; C. albicans CaCi-2 (fluconazole-resistant clinical isolate) + fluconazole, Alamar Blue growth, 48 h; growth inhibition, % (test concentration not listed); 0.57% of 300,000 active;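 active = most replicates above 75%; inconclusive = exactly half above 75%; inactive = most below 75%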;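 also: all wells also contain fluconazole at 8 µg/ml as a sub-toxic cotreatment; 0% = median of DMSO wells and 100% = median of geldanamycin control wells; wells of about 8 µL received 7.5 nL stock; the first replicate is given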
# * = called active by the depositor; ? = inconclusive; / = no result given; & = joins results of further samples.
SMILES,T cruzi repl,RanGTP-Imp inh,Beta apoptosis,AF4-AF9 inh,Vif A3G,A1 inh,LANA-H2A inh,Calb FLC
COc1ccc(C(=O)N2CCCC(CCC(=O)NCc3ccccc3F)C2)c(OC)n1 (stereo not drawn),7,1.4,-3,-0.5,/,0.7,2.5,2
CCN(C(=O)CCc1nc(-c2ccc(OC)cc2)no1)c1cc(OC)ccc1OC,/,-3.5,-3,/,2%,0.0,-0.9,-7
Cc1c(C(O)CN2CCN(Cc3ccc4c(c3)OCO4)CC2)c2ccccc2n1C (stereo not drawn),67*,-7.7,0,?,?,0.0,-0.7,-13
COc1cc(-c2nc(S(=O)(=O)c3ccc(Cl)cc3)c(N3CCOCC3)o2)cc(OC)c1OC,-4,-1.2,4,/,3%&-13%,0.6,-2.5,?
CN(C)CCCNCCNC(=O)/C=N\O,-3,?,1,/,7%,0.8,-3.8,-4
COc1ccc(NC(=O)C2CCN(c3nc(-c4ccc(OC)cc4)no3)CC2)cc1,-10,4.8,6,0.7,/,0.3,0.1,-1
Cc1cccc(N(C(=O)c2nsc(Cl)c2Cl)C(C(=O)NC2CCCC2)c2ccc(O)cc2)c1 (stereo not drawn),36,2.9,4,/,1%,0.0,-0.6,-1
COc1ccc2nc(NC(=O)C3CCN(S(=O)(=O)c4cnc[nH]4)CC3)sc2c1,-9,-5.3,-2,/,?,-0.2,-4.7,5
CCCC(C(=O)NC1CCCC1)N(CCCN1CCOCC1)C(=O)c1snc(C(N)=O)c1N (stereo not drawn),-14,2.5,-2,5.0,-4%&-9%,-0.1,-5.5,-4
COCCNC(=O)c1c(N)n(/N=C/c2ccc(F)cc2)c2nc3ccccc3nc12,4,?,6,-1.6,-21%,0.0,5.4,6
COc1ccc(Nc2nnc(SCC(=O)NC(=O)Nc3ccc4c(c3)OCCO4)s2)cc1,-45,-2.7,-2,-3.0,/,-2.1,-1.9,-7
Cc1ccc(C(=O)NCc2cccnc2)o1,-7,2.9,-4,-1.2,-1%,0.6,5.2,1
CC1CC(C)CN(S(=O)(=O)c2ccc3c(c2)oc(=O)n3CC(=O)NCCCOC(C)C)C1 (stereo not drawn),-1,4.9,2,-0.6,/,0.1,0.3,2
CCCCn1c(N)c(N(CC(C)C)C(=O)C2CC(=O)N(c3ccc4c(c3)OCCO4)C2)c(=O)[nH]c1=O (stereo not drawn),-3,-1.3,1,2.3,-2%,-0.4,1.0,-4
COc1ccc(-c2nc(CS(=O)(=O)CC(=O)NCc3ccc(F)cc3)c(C)o2)cc1,16,-0.1,-1,-5.0,/,-0.7,-0.8,0
NS(=O)(=O)c1ccc(CCNC(=O)CN2CCN(c3ccc(F)cc3)CC2)cc1,4,1.6,-1,/,-4%,-0.2,1.4,8
CCC(C)(C)NC(=O)C(c1ccc(OC)cc1)N(Cc1ccco1)C(=O)CCC(=O)Nc1cc(C)on1 (stereo not drawn),-5,-1.0,-2,/,-2%,0.0,-3.9,1
O=C(c1ccc(Cl)c(Cl)c1)N1CCC(=O)N(C(COCc2ccccc2)Cc2ccccc2)CC1 (stereo not drawn),21,0.6,-1,/,30%,-0.1,0.5,2
O=C(CSc1nnnn1-c1ccccc1)Nc1ccc(N2CCOCC2)cc1,-5,5.2,-3,-1.2,/,0.2,2.3,45
CCCCN(CCCC)S(=O)(=O)c1ccc(N2CCCC2=O)c([N+](=O)[O-])c1,8,0.1,1,/,/,-0.9,2.5,50
Cc1ccsc1C(=O)OCC(=O)NCc1ccc(Cl)cc1,/,/,-1,-1.1,/,-1.5,-3.7,/
O=C(NNS(=O)(=O)c1cccc(Cl)c1Cl)c1cccc(S(=O)(=O)N2CCOCC2)c1,-24,-0.5,-8,-23,/,-0.3,0.1,1
CC(C)OC(=O)CSc1nc(N)c(C#N)c(-c2cccs2)c1C#N,13,-2.4,8,/,-13%,-1.2,1.4,7
CS(=O)(=O)N1CCCC(C(=O)Nc2ccccc2)C1 (stereo not drawn),12,1.1,/,-6.6,/,0.6,-3.5,-2
COc1ccccc1N1C(=O)CC(Sc2ncccc2C(=O)O)C1=O (stereo not drawn),-3,0.0,/,/,12%,0.1,5.9,-4
CC(CC(=O)C1C(C)C=CCC1(C)C)NNC(N)=O (stereo not drawn),13,2.8,0,-1.2,-1%,0.8,2.5,2
NNC(=O)c1cc(NS(=O)(=O)c2cccs2)cc(NS(=O)(=O)c2cccs2)c1,/,/,-7,-1.6,14%,0.0,2.5,/
CCc1nc2ccccc2c(C(=O)OC2CCCCC2=O)c1C (stereo not drawn),-13,0.2,7,-4.0,-5%,2.1,-3.8,13
CC1=C(c2ccccc2)C(=S)NC(C)(C)C1,-18,1.1,-4,-0.8,-1%,0.7,-0.4,-13
CCOc1ccc(CCNC(=O)c2nnn(CC(=O)Nc3ccc(OC)c(OC)c3)c2N)cc1OCC,4,-1.0,7,-1.4,4%,0.8,-8.9,-23
CCn1ncc(C2=NOC(C(=O)Nc3c(C)n(C)n(-c4ccccc4)c3=O)C2)c1C (stereo not drawn),-6,0.0,-5,-2.9,3%,-0.8,1.3,1
CCCC(=O)Nc1nc(-c2ccc3c(c2)OCCO3)cs1,/,/,-3,-0.4,8%,-0.2,-0.3,/
CC1CCC2(CC1)NC(=O)N(CC(=O)Nc1ccc(C(N)=O)cc1)C2=O (stereo not drawn),/,/,2,-0.2,/,-0.3,1.0,/
COc1ccc2cc(OCC(=O)NNC(=O)Nc3ccc(C(C)=O)cc3)ccc2c1,-4,2.5,0,-0.6,/,0.5,5.6,35
CC1CCN(C(=O)CSc2nc(N)c(NC(=O)c3ccccc3)c(=O)[nH]2)CC1,2,-4.3,2,-4.6,4%,0.6,48*,-7
O=[N+]([O-])c1cc2oc3c(c2c(C=NCc2ccccc2)c1O)CCCC3,2,-1.2,11,/,/,0.5,1.0,-19
CC(C)(C)N=C1NC(=NC(C)(C)C)c2ccccc21,36,4.7,8,-39,-7%,0.4,-1.2,-17
COc1cnc(-c2ccccn2)nc1Oc1ccc(F)cc1F,-6,-2.6,-6,0.9,/,-0.3,1.4,-10
Cc1ccc(-c2nnn(CC(=O)N(CC3CCCO3)C(C(=O)NCC3CCCO3)c3ccc(F)cc3)n2)o1 (stereo not drawn),1,-2.7,1,/,-2%,-1.1,3.9,-7
CCOc1cccc(/C=C/c2ccc3cccc(O)c3n2)c1OC,84*,2.7,/,6.6,1%,-1.6,-9.5,?
CCOC(=O)N1CCN(C(=O)C2CCN(C(=O)c3cc4sccc4n3CC)CC2)CC1,-6,2.4,2,-5.8,-3%,1.4,-1.7,0
CCCc1ccc(C(C)NC(=S)NC2CCCCC2)cc1 (stereo not drawn),28,-1.2,18,-0.6,/,-0.6,-1.1,-25
CCCCNc1c(-c2cccc(Sc3ccc(OC)cc3)c2)nc2ccccn12,/,/,-7,-3.7,/,0.9,0.4,/
Cc1ccc2c(CSc3nnc(N)s3)cc(=O)oc2c1,-2,-0.7,3,/,18%,0.8,2.9,-4
CC1(C)C(=O)Nc2ccccc2N1C(=O)COC(=O)c1cc([N+](=O)[O-])ccc1N,1,7.1,-3,5.5,/,-0.9,11,?
N#CCCN(C(=O)COC(=O)CCNS(=O)(=O)c1ccccc1)c1ccccc1,/,/,-3,-4.3,/,-0.4,-16,/
Cn1c(CCNC(=O)c2ccc(Cl)c(Cl)c2)nnc1SCc1ccc(Cl)c(Cl)c1,49,1.1,-3,/,-1%&-5%,0.7,-3.2,-6
CC1CCC(C(C)C)C(OC(=O)Cn2c(-c3ccccc3)[n+](C)c3ccccc32)C1 (stereo not drawn),46&29,-1.6&2.7,104*,8.9&9.1,/,-0.5&-0.4,172*,17&2
COC(=O)C1CC(c2c(OC)cc(OC)cc2OC)=NO1 (stereo not drawn),-8,4.2,2,/,6%,-0.2,2.6,3
Cc1cc[n+](CC[n+]2ccc(C)cc2)cc1,-14,8.8,1,-0.3,/,0.2,6.2,5
Cc1cc(C)c(C(=O)OCC(=O)NCc2cccs2)c(C)c1,15,-3.7,1,-0.7,-4%,1.2,-2.4,-27
CC(=O)Nc1ccc(C(F)(F)F)cc1Cl,-9,5.8,0,0.5,0%,2.3,4.0,0
CCN(CC)CCn1c2c(c(SCC(=O)Nc3nccs3)nc1=O)CCCC2,25,2.6,-6,-27,-5%,0.5,4.6,-6
CCC(=O)N1CCc2cc(S(=O)(=O)NC(C(=O)NCc3ccc(C)cc3)C(C)C)ccc21 (stereo not drawn),1,0.3,4,/,-4%,0.8,1.0,-1
Cc1cccc(OCC(=O)NNS(=O)(=O)c2ccccc2F)c1,-1,-3.4,2,1.1,-5%,0.7,-0.4,6
Cc1c(C(=O)N2CCCC2)c(S(=O)(=O)NCCc2ccccc2)c(C)n1C,18,1.7,6,-1.5,/,-0.8,-2.8,-4
O=C1c2ccccc2C(=O)N1Cc1cc(Cl)c(O)c([N+](=O)[O-])c1,-5,?,-1,-1.9,/,-0.1,-3.1,32
CCN(c1ccccc1)S(=O)(=O)c1nnc(NC(=O)C(C)C)s1,-6,7.3,-5,-1.0,4%,0.8,-2.6,3
CCCc1nc2c(sc3nc4c(cc32)COC(C)(C)C4)c(=O)o1,-13,1.8,-9,-2.8,0%,0.5,1.5,7
O=C(NNC(=O)c1ccccc1O)c1ccc(Cl)c(S(=O)(=O)N2CCc3ccccc32)c1,6,2.2,83*,-2.8,16%,0.6,5.2,10

# Next section
SMILES,T cruzi repl,RanGTP-Imp inh,Beta apoptosis,AF4-AF9 inh,Vif A3G,A1 inh,LANA-H2A inh,Calb FLC
O=C(CC1(O)C(=O)Nc2ccccc21)c1ccc2c(c1)OCO2 (stereo not drawn),-16,5.9,-3,/,11%,0.4,1.8,0
CN(C)CCNC(=O)c1ccc(Cl)s1,-5,3.0,-1,-2.0,26%,-0.1,1.6,2
COc1ccc(N2Cc3cccc(C(=O)O)c3C2=O)cc1,-11,2.0,-1,/,?,2.0,-2.6,-7
OCC1CCCN(C(=S)NCCc2ccccc2)C1 (stereo not drawn),-18,-0.1,-1,/,-2%,-0.2,1.4,/
COc1c(C)cc(Br)cc1C(=O)Nc1ccccc1C,-19,-6.4,1,-1.9,1%,0.9,5.0,-20
CC1(c2ccc(Cl)cc2)NC(=O)N(CC(=O)N2CCc3ccccc32)C1=O (stereo not drawn),/,/,1,-0.4,/,-0.1,-2.2,/
CCNC(=S)N1CCN(S(=O)(=O)c2ccc(Cl)s2)CC1,/,/,-3,-2.6,5%,-0.9,2.9,/
C=CCn1c(CNS(=O)(=O)c2ccc(Cl)cc2)n[nH]c1=S,-8,1.0,-3,-3.4,/,0.0,0.5,3
O=C(CCNC(=O)c1ccc([N+](=O)[O-])cc1)Nc1cc(Cl)ccc1N1CCOCC1,/,/,5,-8.0,-3%,-0.7,-3.7,/
CC(=O)N1CCN(Cc2nc3cc(NC(=O)c4ccccc4Cl)ccc3n2C)CC1,-10,-0.2,-5,1.3,3%,-0.2,-1.8,-1
O=C(NCc1ccc(Cl)cc1)C1CCCN(S(=O)(=O)c2cnc[nH]2)C1 (stereo not drawn),8,-1.6,-8,-0.4,1%,0.0,5.5,0

# Random draw from the library; about 4.3% have a hit in one of these screens.
